From PubChem BioAssay
Menin-MLL FL inh = inhibitors of human menin-MLL interaction, wild-type MLL peptide; AID 1766; Fluorescence polarization, fluorescein-MLL peptide displacement from menin; FP activity change, % at 61.4 µM; 290,000 tested, under 10 active; inconclusive = falling polarisation curve, or a change in total fluorescence; inactive = total fluorescence flat and polarisation flat or rising; no compound was filed as active; the % refers to the polarisation; negative = inhibition;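 note: % of control where 0% means no effect; inhibitors lower the polarisation; unlabelled MLL peptide was the positive control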
ClpP mod = qHTS Assay for Activators of ClpP. AID 651965, 2013. ATP-dependent Clp protease proteolytic subunit (Bacillus subtilis (strain 168)), P80244. hit rate 1.9% among 340,000. purified B. subtilis ClpP, FRET peptide cleavage, 20 min. Potency, µM (series often up to 57.5 µM), for inactives: at the highest dose activity change, negative = active; active = well fitted falling curve with a large enough effect; inconclusive = small, poorly fitted or top-dose-only effect; inactive = no such curve, though single readings can be large or run the other way; note: potency is the fitted concentration of half-maximal effect; the source files actives as falling curves though it sought activators and does not explain the sign; nearly all actives have a fitted effect of over 65% in size; many hits overshoot -100%
Target sequence (P80244 whole entry, looked up): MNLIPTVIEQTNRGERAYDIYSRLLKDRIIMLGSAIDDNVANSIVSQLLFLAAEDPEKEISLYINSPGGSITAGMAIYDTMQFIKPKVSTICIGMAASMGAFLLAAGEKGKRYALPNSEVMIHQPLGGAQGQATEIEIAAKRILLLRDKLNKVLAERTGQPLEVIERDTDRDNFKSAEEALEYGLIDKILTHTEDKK
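Buffer: 100 mM Tris/HCl pH8, 100 mM KCl, 0.05% low protease BSA, 2.5% glycerol, 0.01% Tween-20. ClpP 10 microg/mL final; 20 min RT; delta FRET normalized to ADEP and DMSO controls.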
Sfp inh = blocks B. subtilis Sfp PPTase activity; Q9F4F7; hit rate 3.5% among 310,000; AID 1490; Biochemical Sfp PPTase activity, qHTS; Potency, µM, without a hit: max response, negative = inhibition, most hits filed as inhibitors; active = well fitted inhibition curve with a large enough effect; inconclusive = small, poorly fitted or top-dose-only effect, or another doubt; inactive = no such curve, though single readings can be large or run the other way;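 note: the enzyme is Sfp with the accession as filed and its product quenches rhodamine fluorescence; potency is the fitted concentration of half-maximal effect; 0% = enzyme reaction without inhibitor and -100% = no enzyme wells; top concentration of the series not given in the record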
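Compounds were incubated with enzyme (final 15 nM) for 15 min at room temperature before substrate addition started the reaction. Fluorescence at 525 nm excitation, 598 nm emission was recorded immediately and after 30 minutes.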
gsp antag = antagonists of gsp mutant (McCune-Albright syndrome). gsp-mutant cells, cAMP HTRF, 30 min; control for the full effect not named in the record. Potency, µM (series often up to 76.9 µM), without a hit: at the top dose activity change, negative = inhibition, usual class: inhibitors. hit rate 0.4% among 340,000. AID 624288; active = falling curve of any shape with a large fitted effect; inconclusive = falling curve, mostly with a smaller effect; inactive = flat or rising curve; cell line not stated here;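 note: intracellular cAMP measured with PDE inhibitor Ro 20-1724 present during compound exposure; potency is the fitted concentration of half-maximal effect; % is set by controls: 0 for no effect and ±100 for the full control effect; nearly all actives have a fitted effect of over 65% in size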
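HTRF cAMP read-out (cAMP-d2 plus anti-cAMP antibody-K in lysis buffer, 30 min RT). Before lysis, cells are exposed to compounds with […] for 30 min at 37C in DPBS containing Ca/Mg, BSA and Tween 20.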
TRPV1 potentiator = enhances activation of the human vanilloid receptor TRPV1; hit rate 0.02% among 320,000; potentiation, % at 8.33 µM; Q8NER1; TRPV1-expressing cells, Fluo-8 calcium influx, capsaicin EC20 potentiation; host cell line not named in the record; control for the full effect not named in the record; active means potentiation above 80%; inconclusive means 30% to 80%; inactive means below 30%; note: 0% is about no effect
Target sequence (Q8NER1 whole entry, looked up): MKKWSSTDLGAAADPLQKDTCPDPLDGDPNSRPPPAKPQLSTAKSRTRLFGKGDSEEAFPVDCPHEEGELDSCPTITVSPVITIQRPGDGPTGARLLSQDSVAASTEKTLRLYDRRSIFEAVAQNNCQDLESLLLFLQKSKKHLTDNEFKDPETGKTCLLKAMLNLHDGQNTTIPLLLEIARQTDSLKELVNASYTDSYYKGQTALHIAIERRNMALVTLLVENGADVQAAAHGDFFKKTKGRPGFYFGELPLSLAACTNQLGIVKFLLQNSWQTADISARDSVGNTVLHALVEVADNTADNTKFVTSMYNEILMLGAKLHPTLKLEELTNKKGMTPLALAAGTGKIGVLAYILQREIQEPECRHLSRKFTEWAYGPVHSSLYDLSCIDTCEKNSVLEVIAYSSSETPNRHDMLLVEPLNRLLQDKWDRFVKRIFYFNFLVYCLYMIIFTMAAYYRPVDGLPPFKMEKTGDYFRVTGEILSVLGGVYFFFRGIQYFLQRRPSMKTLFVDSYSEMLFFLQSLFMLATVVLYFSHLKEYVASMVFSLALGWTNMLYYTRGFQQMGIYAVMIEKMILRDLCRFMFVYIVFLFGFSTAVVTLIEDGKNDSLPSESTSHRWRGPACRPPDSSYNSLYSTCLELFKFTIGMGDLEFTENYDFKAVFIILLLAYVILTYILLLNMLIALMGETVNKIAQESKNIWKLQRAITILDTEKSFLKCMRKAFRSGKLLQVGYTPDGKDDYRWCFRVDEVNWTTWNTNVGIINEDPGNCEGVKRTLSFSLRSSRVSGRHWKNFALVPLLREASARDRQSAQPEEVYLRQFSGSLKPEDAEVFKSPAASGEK
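Fluo-8 calcium influx in TRPV1-expressing cells, kinetic read (ex 480/em 520 nm). Compound added and read 3 min for agonist activity, followed by capsaicin at EC20 final and 2 min further read for enhancement.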
gsp agonist = activates gsp, the McCune-Albright syndrome mutation; gsp mutant cells, cAMP HTRF, 30 min; control for the full effect not named in the record; hit rate 0.13% among 340,000; Potency, µM (doses to about 76.9 µM), for the others: at the top dose activation (cAMP increase), most hits filed as activators; active = well fitted activation curve with a large enough effect; inconclusive = small, poorly fitted or top-dose-only effect, or another doubt; inactive = no such curve, though single readings can be large or run the other way; cell line not stated here;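 note: phosphodiesterase inhibitor Ro 20-1724 added with compounds to block cAMP breakdown; potency is the fitted concentration of half-maximal effect; nearly all actives have a fitted effect of over 60% in size; about a fifth of the inactives were tested at one dose only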
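Cells in DMEM/10% FBS with G418 were pretreated with compounds in DMSO plus […] (300 uM stock) for 30 min at 37C. cAMP was measured by HTRF (cAMP-d2 plus anti-cAMP antibody-K) after 30 min at room temperature.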
CtBP-E1A blk = blocks the CtBP interaction with E1A | AlphaScreen GST-E1A/His-CtBP binding, 1536-well; stronger effect = lower value; control for the full effect not named in the record | activity change, % (test concentration not listed) | hit rate 0.49% among 340,000 | AID 651724; in the data active means activity change below about -65%; inconclusive means about -30% to -65%; inactive means above about -30%; note: % is set by controls: 0 for no effect and ±100 for the full control effect; compound concentration not given in the record
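GST-E1A and His-tagged CtBP (125 nM each as 5X stock) were preincubated with pin-transferred compound for 2 h at 37 °C in the dark, then glutathione donor and nickel acceptor beads were added for 1 h before AlphaScreen reading.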
* marks the source's active call; other numbers are inactive results; ? = inconclusive; nt = not tested or not shown; & = joins results of further samples; [ ] = another dose, or the depositor's remark. An unsorted share of the library. About 5.3% of those tested had a hit in this group.

SMILES | Menin-MLL FL inh | ClpP mod | Sfp inh | gsp antag | TRPV1 potentiator | gsp agonist | CtBP-E1A blk
Cc1cc(C(=O)N/N=C2\CC(=O)c3ccccc32)c(C)n1-c1ccc(F)cc1 | 3.1 | -2.7% | 1% | 4% | 5 | 11% | -19
COc1ccc(C(=O)COC(=O)CCC(=O)c2cccs2)cc1 | -0.9 | nt | 21% | -4% | -2 | 18%[15.4 µM] | 3
C=CCOc1cccc(C2C(C(=O)c3ccc(C)o3)=C(O)C(=O)N2Cc2ccncc2)c1 (stereo not drawn) | 6.7 | -3.1% | -1% | 20% | 22 | ? | 9
N#Cc1cccc(NC(=O)CNc2cccc(S(=O)(=O)N3CCCCC3)c2)c1 | nt | -1.8% | nt | -20% | -14 | -5% | 0
CCn1cc(C(=O)O)c(=O)c2cc3c(cc21)OCO3 | -0.5 | nt | 10%&-8%&10% | nt | -1 | nt | nt
CC(=O)c1cccc(NC(=O)CN2C(=S)NC(C)(C)CC2C)c1 (stereo not drawn) | -6.0 | nt | -36% | 18% | -2 | 0%[15.4 µM] | -5
Cc1ccccc1NC(=O)COC(=O)c1ccc(C)c(S(=O)(=O)N2CCCCC2)c1 | nt | -4.9% | nt | nt | nt | -53%[inhibitor] | 2
COc1ccccc1C1CC(c2ccccc2)Nc2ncnn21 (stereo not drawn) | -0.8 | -1.9% | -3% | 5% | 1 | 2% | 7
CCOc1ccc(CCNC(=O)CCS(=O)(=O)c2ccc(Br)cc2)cc1OCC | -0.6 | 1.8% | 9% | 6% | -8 | 10% | -4
O=C(NCc1ccco1)C1CCCN1C(=O)NCc1ccccc1 (stereo not drawn) | 1.5 | 0.5% | 6% | 26% | 3 | 0% | 11
CCn1c(=O)n(CC)c2cc(N3CCCC3)c(NC(=O)c3cccc(C)c3)cc21 | -0.7 | -12% | -9% | ? | -5 | -18% | -10
Cc1c(C(=O)N2CCN(Cc3ccc4c(c3)OCO4)CC2)sc2ncnc(N3CCN(c4ccccc4F)CC3)c12 | nt | -21% | 0% | 3% | 11 | 7% | nt
O=C1OCCC1=COCCOC=C1CCOC1=O | nt | 1.2% | nt | nt | nt | -16% | 1
COc1ccc(C(C)=O)cc1CSc1nnc(-c2ccccc2O)n1-c1ccccc1 | 0.6 | -0.4% | 1% | -15% | 12 | 27% | -9
Cc1cc2c(C)nc3ccccc3c2o1 | -1.2 | -11% | 2% | 2% | -6 | -18% | -2
CCN1CCN(c2oc(/C=C/c3ccccc3)nc2C#N)CC1 | 4.6 | 3.9% | 32µM* | 0% | ? | 11% | nt
COC(=O)CSc1nnc(-c2cccc(NC(=O)c3ccc(C)cc3)c2)n1C | -0.3 | -0.4% | 3% | 1% | 18 | -2% | -5
Cc1ccc(C)c(Nc2c([N+](=O)[O-])ccc3nonc23)c1 | -19 | -1.7% | 5% | 2% | 11 | -1%[15.4 µM] | ?
COc1ccc(OC)c(N(CC(=O)NCCSCc2ccco2)S(=O)(=O)c2ccc(OC)c(OC)c2)c1 | nt | 1.6% | 11% | ? | -10 | -34% | -5
CC(=O)CC1(C)OC(N)=C(C#N)C1(C#N)C#N (stereo not drawn) | ? | 0.8% | -11% | ? | 10 | ? | -1
Cc1cc(C)nc(-n2cc(C(=O)c3cc(F)ccc3O)cn2)n1 | 4.7 | 2.1% | -24% | -1% | 3 | -6%[15.4 µM] | 8
CCN1CCC[C@H]1CNC(=O)c1cc(S(N)(=O)=O)ccc1OC | 1.5 | nt | 8%&13%&9%&5%&31% | nt | -1 | nt | nt
Cc1ccc(C)c(SCC(=O)Nc2cccnc2Cl)c1 | 4.3 | 1.4% | -24% | 6% | 4 | -15% | 13
CC(C)=CCC/C(C)=C/CC/C(C)=C/COc1ccc2ccc(=O)oc2c1 | nt | 4.2% | nt | 2% | nt | nt | 5
CSCCC(NC(=O)C1CC1)c1nc2ccccc2[nH]1 (stereo not drawn) | 2.5 | -1.1% | 13% | 0% | 0 | -32%[inhibitor] | 8
Next part:
SMILES | Menin-MLL FL inh | ClpP mod | Sfp inh | gsp antag | TRPV1 potentiator | gsp agonist | CtBP-E1A blk
CCNC(=O)c1ccc2c(c1)C1C3CCC(C3)C1C(c1ccccc1)N2 (stereo not drawn) | 5.2 | -26% | -9% | -32% | -11 | ? | 2
CCN(CC)c1ccc(C(=O)OCC(=O)Nc2ncccn2)cc1 | nt | nt | nt | 2% | nt | 8% | 7
CCCC(CCC)C(=O)NC1CCN(Cc2ccccc2)CC1 | -0.6 | nt | 16% | 9% | -5 | 12% | 7
CC(C)C(=O)N=c1sc2cccc(F)c2n1C | 3.5 | -4.1% | 7% | 1% | -17 | ? | -7
c1ccc2c(c1)OC(CCCN1CCCCC1)c1ccccc1S2 (stereo not drawn) | 1.7 | -6.2% | 1% | 21% | -10 | -6% | -11
Cc1ccc2c(c1)N(CC(=O)N1CCCC1)C(=O)C(C)O2 (stereo not drawn) | 2.0 | 0.2% | 18% | -13% | 4 | 2%[15.4 µM] | 6
CC(=O)Nc1cccc(NC(=O)CSc2nnnn2-c2ccc3c(c2)OCO3)c1 | 2.1 | nt | 13% | nt | -4 | nt | nt
CNc1nc(-c2cccs2)cc(C(F)(F)F)c1C#N | 0.3 | 4.2% | 5% | 5% | -1 | 4% | nt
COc1cc(C2Nc3ccccc3NC3=C2C(=O)CC(C)(C)C3)cc(OC)c1OC(C)=O (stereo not drawn) | -1.2 | nt | 12% | -2% | -2 | -15% | 5
Cc1ccc(-n2c(-c3ccco3)nc3nc4ccccc4nc32)cc1 | 5.4 | 3.9% | 2% | -35% | -12 | 1% | nt
COc1ccc(/C=C2\SC(=O)N(CCNC(=O)Cn3[nH]c(=O)c4ccccc4c3=O)C2=O)cc1 | nt | nt | nt | -1% | nt | -24% | -1
O=S(=O)(c1cnc(Cl)c(Br)c1)N1CCCCCC1 | 7.0 | -5.1% | 16% | 1% | -17 | 10% | -6
CN1CCN(S(=O)(=O)c2cccc(C(=O)Nc3cc(C(N)=O)cc(C(N)=O)c3)c2)CC1 | -2.9 | nt | 14% | 16% | 25 | -3% | ?
CCN1CC(C)C(O)(c2ccccc2)CC1C (stereo not drawn) | 1.5 | -2.0% | 10% | 9% | -1 | -14% | 0
Cc1ccc(-n2ncc3c(=O)n(-c4cccc(C)c4)c(=O)[nH]c32)cc1 | nt | 1.9% | nt | nt | nt | -2% | -4
Cc1ccc(C(C(=O)NC2CCCCC2)N(Cc2ccco2)C(=O)C2COc3ccccc3O2)o1 (stereo not drawn) | 5.8 | -3.3% | 6% | -7% | -8 | -25% | -4
O=C(Cn1nc(Cc2cccnc2)c2ccccc2c1=O)NCC1COc2ccccc2O1 (stereo not drawn) | 0.6 | 0.3% | 9% | -9% | 3 | 8% | -2
O=C(O)c1[nH]c2ccccc2c1C(c1cc(Br)ccc1O)c1c(C(=O)O)[nH]c2ccccc12 | -4.3 | -4.8% | 8% | 8% | -31 | -28% | nt
OCC1(CCc2ccccc2)CCN(Cc2cc(F)ccc2-n2cccn2)CC1 | 0.1 | -1.2% | 5% | 1% | -18 | 0% | 1
Cc1ccc(CNC(=O)CCC(=O)n2ncc3cc(C)ccc32)cc1 | 1.6 | -6.0% | 9% | 10% | -12 | 3% | 8
CC(C)(C)Cc1nnc(NC(=O)c2ccc([N+](=O)[O-])cc2)s1 | -0.6 | -2.3% | 4% | 4% | -2 | 6%[15.4 µM] | -5
O=C(CCCCCN1C(=O)c2ccccc2C1=O)Nc1nccs1 | 3.8 | 1.3% | 16% | 8% | 4 | 0% | 0
COc1ccccc1N1CCN(C(CNS(=O)(=O)c2ccccc2)c2cccnc2)CC1 (stereo not drawn) | 4.2 | -13% | 11% | -7% | 2 | 27% | -4
CC(=O)Nc1ccc(S(=O)(=O)Oc2cccc(/C=C3\SC(N)=NC3=O)c2)cc1 | 12 | nt | -9% | 11% | 6 | -16%[15.4 µM] | -23
Cc1c(C(=O)NC2CCCc3ccccc32)oc2ccc(S(=O)(=O)N3CCOCC3)cc12 (stereo not drawn) | 0.4 | -1.6% | 5% | -4% | 3 | 7% | -4
(continued)
SMILES | Menin-MLL FL inh | ClpP mod | Sfp inh | gsp antag | TRPV1 potentiator | gsp agonist | CtBP-E1A blk
COCCNC(=O)CN1C(=O)CSc2ccc(S(=O)(=O)N3CCOCC3)cc21 | 1.3 | -0.4% | 3% | 2% | -2 | -25% | 1
CCSc1nnc(NC(=O)c2cc3c(s2)CCCC3)s1 | -1.7 | -17% | 8% | 9% | -12 | 23% | 8
Clc1ccc(OCCCN2CCc3ccccc3C2)c(Br)c1 | -1.6 | 1.0% | 1% | 7% | 6 | -10% | nt
O=C(Nc1cc(Oc2ccccc2)cc([N+](=O)[O-])c1)C12CC3CC(C1)CC(n1cnc(Cl)n1)(C3)C2 | 0.0 | -1.9% | 12% | 1% | 12 | -17% | -11
Fc1ccc(COc2ccc(Cl)cc2/C=N/Nc2nc(N3CCCC3)nc(N3CCCC3)n2)cc1 | 1.8 | -1.1% | 17% | 1% | -10 | 3% | 1
CCNc1ccc(C(=O)OCC(=O)c2cc(C)n(Cc3ccc4c(c3)OCO4)c2C)cc1[N+](=O)[O-] | 0.1 | -5.7% | -5% | 3% | ? | 7% | -8
Cc1ccc(CSCc2ccc(C(=O)NC3CC3)o2)cc1 | nt | -0.8% | -3% | -16% | -25 | -30%[inhibitor] | nt
COC(=O)[C@H](Cc1ccccc1)NC(=O)NCc1ccccc1OC | 3.6 | 0.8% | 15% | -14% | -3 | -9% | 8
O=C(Nc1c2c(nn1-c1cccc(Cl)c1)CS(=O)(=O)C2)C1CC1 | nt | 0.8% | 21% | -4% | 2 | 12%[15.4 µM] | 2
CN(C)CCCOc1ccc2c(c1)Sc1ccccc1CC2=O | nt | -5.8% | 22µM* | 10% | 10 | 26% | 25
CCOC(=O)C1CCc2sc(N)c(C#N)c21 (stereo not drawn) | ? | 1.7% | 50µM* | -1% | nt | 3% | 6
